PrP UTR inh = inhibition of PrP 5' UTR reporter expression. cell-based PrP 5' UTR mRNA reporter, plate reader. inhibition, % (test concentration not listed). actives 0.35% (n = 340,000). AID 488862, 2010;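 active means every replicate at 50% or more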;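 further: 0 = median of the neutral control wells; tested in H4 reporter cells; numbers are from one replicate; inactives centre near -14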
Bead autofluor = flagged as autofluorescent in microsphere protease counterscreen; compound autofluorescence counterscreen, microsphere flow cytometry; hits give high values; fluorescence intensity (concentration not given with the values); actives 3.1% (n = 360,000);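 active means at least 3 SD above the mean of all compounds, about 16000 in these data; inconclusive means too few beads counted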;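 further: 100 nL of 1 mM stock went into each well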
Mtb hypoxia inh = PubChem AID 1159583 | M. tuberculosis hypoxia-regulated fluorescent reporter, fluorescence | actives 0.1% (n = 300,000) | fluorescence inhibition, % (concentration not given with the values);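 active means 35 to 45% if threefold the growth effect, above 45% if 1.5-fold the growth effect; inactive means the rest, general growth blockers included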;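 further: wells of about 50 µL received 100 nL stock; 0% = vehicle wells and 100% = reference inhibitor wells; whole bacteria with a GFP reporter of the hypoxia response; strong numbers were not always called active; many hits fall short of the cut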
Sa RN4220 lethal = growth inhibition of S. aureus RN4220, primary screen, OD600; 16 h; inhibition, % (no concentration beside the values); actives 0.33% (n = 330,000); AID 1259311, 2017;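 active means z-score of -3 or lower and OD600 up to 0.18 on both plates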;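 further: plate controls were untreated cells for no effect and reference antibiotic for full effect; stock transfer was 100 nL into about 80 µL; one replicate is shown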
Sa ugtP lethal = growth inhibition of ugtP-null S. aureus, primary screen, RN4220 ugtP deletion, OD600; 16 h; some inactives read as strong as hits; growth inhibition, % (test concentration not listed); actives 0.54% (n = 330,000);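 active means z-score under -3 and OD600 up to 0.15 on both plates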;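 further: plate controls were untreated wells for no effect and antibiotic for full effect; wells of about 80 µL received 100 nL stock; the first replicate is given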
BJeLR lethal = MLPCN primary cell-based screen for lethality selective to Ras in HRASV12 cells | BJeLR (HRASV12) viability, CellTiter-Glo ATP luminescence, 48 h; reference of the scale not given here | inhibition, % (no concentration beside the values) | actives 0.17% (n = 300,000);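 active means replicate mean above 50%; inconclusive means above 50% but judged a plate artefact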;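 further: 50 nL library stock added to about 25 µL; numbers are from one replicate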
Mtb hypoxia inh growth = further read-out of Mtb hypoxia inh, marked with its call; growth inhibition, %; measured here: M. tuberculosis growth (absorbance);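 0% = vehicle and 100% = reference antibiotic; read after six days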
* = called active by the depositor; ? = inconclusive; · = no result given.

nr	molecule	PrP UTR inh	Bead autofluor	Mtb hypoxia inh	Mtb hypoxia inh growth
1	CC1CCc2c(sc(NC(=O)CSc3ncn[nH]3)c2C#N)C1 (stereo not given)	70.0*	3947	9.6	12.1
2	CC(C)CSc1n[nH]c(=S)s1	9.9	3985	12.3	17.7
3	C=C(C)CNC(=S)N1CCNC(=O)C1CC(=O)OC (stereo not given)	-11.9	2232	-2.3	8.3
4	COc1ccc(NC(=O)COC(=O)c2ccc(OCc3c(C)noc3C)cc2)cc1OC	-8.4	21341*	-0.9	1.1
5	O=C(NC1CCCCC1)N(CCN1CCCC1)Cc1cc2cc3c(cc2[nH]c1=O)OCCO3	0.5	12474	-9.3	-2.3
6	Cc1cccc(N2CCN(C(=O)NC(C)c3ccc(F)c(F)c3)CC2)c1C (stereo not given)	-14.8	3713	9.2	-1.8
7	COc1cc(/C=C/C(=O)Nc2cccnc2)cc(OC)c1OC	-27.5	3158	1.5	2.0
8	O=C(/C=C/Nc1cccc(C(F)(F)F)c1)C(F)(F)F	23.0	20521*	2.6	10.4
9	COc1ccccc1NCCC(=O)O	-14.3	3623	3.8	3.4
10	CCC(C)NS(=O)(=O)c1ccc(OCC(=O)NCC2CCCO2)cc1 (stereo not given)	4.5	9886	-2.2	-3.4
11	CCOC(=O)c1cccc(NC(=O)c2ccc(-n3cnnn3)cc2)c1	-23.1	3056	15.1	6.6
12	Cc1cc(NS(=O)(=O)c2c(C)[nH]c(=O)[nH]c2=O)ccc1Br	-23.5	3013	-0.2	-5.8
13	COc1ccccc1CNC(=O)COC(=O)c1ccc(S(=O)(=O)N2CCCCC2)cc1	-15.4	5534	10.0	-2.7
14	CCc1nnc(NC(=O)CCC(=O)NC2CCCCCC2)s1	-17.2	5237	-4.9	2.4
15	COc1ccc(N2CCC(CNC(=O)Nc3ccc(Cl)cc3)C2)cc1 (stereo not given)	-15.8	?	6.7	-2.2

nr	Sa RN4220 lethal	Sa ugtP lethal	BJeLR lethal
1	-0.4	3.8	-3.5
2	5.2	-5.6	-0.5
3	5.9	5.2	0.9
4	2.5	4.8	12.9
5	-5.3	-1.0	12.5
6	1.7	-0.3	1.9
7	-3.2	16.8	5.3
8	1.8	-1.9	·
9	3.1	-4.1	-10.9
10	2.4	0.9	2.1
11	0.3	9.9	·
12	-1.8	2.5	3.9
13	4.0	3.2	·
14	-4.8	-6.9	-4.7
15	2.9	-8.8	-7.7

More records.
nr	molecule	PrP UTR inh	Bead autofluor	Mtb hypoxia inh	Mtb hypoxia inh growth
16	O=C(COC(=O)CNC(=O)c1ccccc1F)Nc1ccc2c(c1)OCCO2	-16.8	2206	4.5	5.2
17	COC(=O)c1cccc(-n2c(C)cc(C=O)c2C)c1	-28.7	2501	4.8	1.4
18	COc1cc(/C=N/NC(=O)c2ccc(O)cc2)ccc1OCC(=O)Nc1cccc([N+](=O)[O-])c1	-27.0	3574	·	·
19	CCC1(C(=O)OC)CCc2c(cc(OC)c3ccccc23)C1=O (stereo not given)	-28.5	4089	-2.3	-11.7
20	C[C@@H](CN1C(=O)C(=O)NC[C@@H]1Cc1ccc(O)cc1)NC(=O)Cc1ccccc1	-23.0	3889	·	·
21	CCn1c(CSc2nc3ccccc3s2)nc2ccccc21	-18.3	3417	17.8	4.1
22	COCCN1C(=O)c2[nH]nc(-c3ccccc3O)c2C1c1ccc(OC)cc1 (stereo not given)	-2.0	·	13.0	5.4
23	CC(O)CNC(=O)Cc1cc(=O)[nH]c(=O)[nH]1 (stereo not given)	-20.3	4219	2.6	-0.7
24	O=C(Nc1cccc(NC(=O)c2cccs2)c1)c1ccc(F)cc1	·	3642	-4.0	4.2
25	COc1cc(NC(=O)c2cc(S(=O)(=O)N3CCc4ccccc43)cn2C)cc(OC)c1OC	-8.1	4471	6.3	2.4
26	CC1(C)SC2c3ccccc3C(=O)N2[C@@H]1C(=O)O (stereo not given in full)	-9.2	3665	0.0	7.5
27	CCN(CC)c1ccc(C=NNC(=O)c2cccc(S(=O)(=O)N3CCOCC3)c2)cc1	·	·	-4.8	7.4
28	Cc1ccnc(SCCn2c(N3CCN(c4ccccc4)CC3)nc3c2c(=O)[nH]c(=O)n3C)n1	-5.7	5962	-5.3	10.4
29	C=C(C)C(=O)Nc1cccc(C2=NOC3(C2)C[C@@H](C(N)=O)N(C(=O)/C=C/C=C/C)C3)c1 (stereo not given in full)	-17.3	3486	·	·
30	N#Cc1ccc(N2CCN(C(=O)c3cccc(F)c3)CC2)c(F)c1	-17.8	5749	12.0	21.1

nr	Sa RN4220 lethal	Sa ugtP lethal	BJeLR lethal
16	4.0	-0.2	-6.2
17	-1.2	8.1	-19.2
18	·	·	1.0
19	13.4	11.1	-7.3
20	·	·	-11.7
21	5.8	6.9	-2.3
22	2.5	3.8	-1.4
23	4.3	3.8	3.1
24	16.0	8.6	-4.2
25	4.4	3.2	0.5
26	-1.3	13.4	3.0
27	1.8	3.9	·
28	13.9	4.5	-4.6
29	·	·	5.5
30	-8.0	-9.7	3.6

(further entries)
nr	molecule	PrP UTR inh	Bead autofluor	Mtb hypoxia inh	Mtb hypoxia inh growth
31	COc1ccccc1CNC(=O)c1cccc(S(=O)(=O)N2CCN(C)CC2)c1	-27.1	4283	13.7	7.7
32	O=C(NC1CC1)c1ccc2c(c1)N(Cc1ccc(Cl)cc1)CCS2	-8.5	5370	·	·
33	O=C(NCCCn1ccnc1)c1ccc(OCC(F)(F)F)cc1	-14.4	3679	6.3	7.0
34	CCn1c(C(=O)NCCCN2CCc3ccccc3C2)cc2sccc21	4.7	24380*	1.0	10.4
35	CCc1nc2ccccc2n1CC(C)C(=O)O (stereo not given)	-61.3	4293	-6.0	2.9
36	CN(C)/C=C/c1[nH]c(=O)[nH]c(=O)c1[N+](=O)[O-]	-9.9	3871	·	·
37	O=C(c1cc(-c2ccco2)on1)N1CCN(C(c2ccccc2)c2ccccc2)CC1	-8.7	21890*	-3.5	5.9
38	COc1ccccc1-n1c(O)c(C=NCc2ccc3c(c2)OCO3)c(=O)[nH]c1=O	-90.5	·	·	·
39	COC(=O)c1ccc(NC(=S)NC(=O)c2cccnc2)cc1	-24.4	3216	·	·
40	Cc1[nH]n(-c2ccccc2)c(=O)c1/C=N/NC(=O)c1ccc(O)cc1O	5.3	3370	·	·
41	Cc1ccc(OCCN(C)C(=O)C2CCC(=O)N(Cc3ccccc3F)C2)cc1 (stereo not given)	-14.7	5612	-2.3	1.0
42	O=C(Oc1ccc(/C=N/NC(=O)c2ccccc2F)cc1)c1ccccc1	-17.5	5960	·	·
43	COc1ccc(OCC(=O)N/N=C/c2ccsc2)cc1	-13.5	7767	·	·
44	ClC(=C\c1ccccc1)/C=N/N1CCN(c2ccccn2)CC1	-36.0	2256	·	·
45	Fc1cccc(C=NN=Cc2cccc(F)c2)c1	·	·	8.7	7.7

nr	Sa RN4220 lethal	Sa ugtP lethal	BJeLR lethal
31	9.0	-3.9	-4.2
32	·	·	-0.9
33	1.0	13.0	-1.5
34	3.1	2.9	-1.6
35	5.1	-1.3	1.7
36	·	·	3.5
37	-3.1	4.2	-0.3
38	2.4	0.5	12.1
39	2.7	41.2	-7.7
40	·	·	-3.7
41	-1.1	-0.5	-2.6
42	·	·	-1.8
43	·	·	5.4
44	·	·	-9.2
45	1.9	2.2	·

The listing continues.
nr	molecule	PrP UTR inh	Bead autofluor	Mtb hypoxia inh	Mtb hypoxia inh growth
46	CCN(CC)c1nc(Nc2ccccc2)nc(Oc2ccc(=O)[nH]n2)n1	0.2	10725	6.7	1.2
47	O=C(Nc1ccc(NC(=O)c2ccc3c(c2)OCO3)cc1)c1cccc(Cl)c1	-12.4	?	4.3	-1.3
48	O=C(CCc1ccc(S(=O)(=O)N2CCOCC2)cc1)N1CCN(Cc2ccc3c(c2)OCO3)CC1	-8.1	2919	10.1	10.2
49	CCn1c(SCC(=O)Nc2ccc(N3CCOCC3)cc2)nnc1C1CC1	-19.1	3903	9.0	2.4
50	Nc1cc(C2CCCC2)nn1-c1ccccc1	-58.5	2946	3.4	9.9
51	O=C(Nc1ccccc1Cc1ccccc1)c1oc2ccccc2c1COc1ccccc1	-3.9	1966	11.5	11.3
52	Cc1c(Cl)cccc1N=Cc1ccc([N+](=O)[O-])s1	-4.8	15907	-10.1	0.5
53	COc1ccc(N2CCN(S(=O)(=O)c3ccc(OC)c(C(=O)N4CCCCC4)c3)CC2)cc1	-16.0	3819	-14.4	-4.3
54	CCOc1ccc(C(=O)N2CCN=C2SC)cc1OCC	-5.3	3127	·	·
55	COC(=O)c1nnn(-c2nonc2N)c1CN1CCc2ccccc21	-12.7	2193	·	·
56	O=P1(N(CCCl)CCCl)NCCCO1 (stereo not given)	-16.2	5210	3.5	11.4
57	COc1cccc(C2c3c(oc4ccccc4c3=O)C(=O)N2CCCN2CCOCC2)c1 (stereo not given)	-18.5	6359	·	·
58	Cc1ccc(S(=O)(=O)Cn2nnnc2C(CC(C)C)N2CCC(C(N)=O)CC2)cc1 (stereo not given)	-1.6	3020	-5.2	-0.9
59	Cc1nnc(Cl)c2nn(-c3ccccc3F)c(C)c12	-19.3	9529	10.0	4.2
60	COc1cc2c(cc1OC)[C@@H](NC(=O)C(C)C)[C@H](OCc1ccccc1)C2	-17.7	4187	-3.9	2.9

nr	Sa RN4220 lethal	Sa ugtP lethal	BJeLR lethal
46	1.0	-6.4	15.4
47	3.7	0.2	·
48	16.2	3.3	-8.7
49	4.2	11.4	·
50	-15.8	-4.6	5.7
51	-11.3	58.6	-7.0
52	2.2	-11.7	21.7
53	6.4	4.3	-0.9
54	-0.9	1.2	-0.7
55	13.5	-1.7	1.9
56	4.4	2.2	-5.1
57	0.5	4.2	-4.7
58	3.8	-4.8	-0.9
59	3.8	5.3	-3.5
60	0.3	-5.3	·

Remaining list, next part
nr	molecule	PrP UTR inh	Bead autofluor	Mtb hypoxia inh	Mtb hypoxia inh growth
61	CC(C)c1ccc(N(C(=O)c2ccco2)C(C(=O)NC2CCCC2)c2cccnc2)cc1 (stereo not given)	-38.2	3479	3.3	2.6
62	Cc1c(C(=O)Nc2ccc(-c3nnc4n3CCCCC4)cc2)oc2c1ccc1ccccc12	-26.7	2401	-15.8	-0.8
63	Cc1ccc(C)c(C2(O)CC(C)N(C)CC2C)c1 (stereo not given)	-24.5	2372	·	·
64	NC1=NN(c2ccccc2)C(=O)C1	-4.2	3697	3.3	2.4
65	CC(C)N1CCN(Cc2c[nH]c3ccccc23)CC1CCO (stereo not given)	-23.4	3350	3.7	1.0
66	CCOc1ccc(NC(=O)CC(Cc2ccc(Cl)cc2)C(=O)O)cc1 (stereo not given)	-16.2	4234	16.4	9.0
67	COCCN(C(=O)Nc1ccc(F)cc1F)c1nc2ccccc2s1	-10.5	2976	6.0	16.9
68	O=C(CSc1ncccn1)N1CCN(C(c2ccccc2)c2ccccc2)CC1	-20.6	8803	19.7	6.5

nr	Sa RN4220 lethal	Sa ugtP lethal	BJeLR lethal
61	2.3	-3.1	5.1
62	8.0	9.4	6.1
63	0.1	8.7	5.3
64	1.7	-1.5	·
65	2.5	13.1	6.7
66	1.4	15.1	0.9
67	-2.4	-5.1	18.5
68	1.5	4.5	0.9

Screens as filed in PubChem.
